CBX7 inh: blocks human CBX7 binding to H3K27me3 peptide. AID 1224903. 1.1% of 66,000 active. normalised signal (fraction of DMSO) (concentration not given with the values). O95931. AlphaScreen His6-CBX7 / biotin-H3K27me3 peptide binding; stronger effect = lower value; in the data active means normalised signal below about 0.5;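 further: 100 nL library stock added to about 20 µL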
Target sequence (O95931 whole entry, looked up): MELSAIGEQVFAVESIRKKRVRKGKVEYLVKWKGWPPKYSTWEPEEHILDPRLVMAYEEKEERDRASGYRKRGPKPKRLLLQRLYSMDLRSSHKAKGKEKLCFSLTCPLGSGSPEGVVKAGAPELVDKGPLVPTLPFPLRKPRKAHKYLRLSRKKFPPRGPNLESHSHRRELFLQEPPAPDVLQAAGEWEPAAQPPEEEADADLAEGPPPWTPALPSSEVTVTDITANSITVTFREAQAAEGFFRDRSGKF
CBX7 inh z-score: recorded beside CBX7 inh, whose call it bears; z-score; measured here: z-score of CBX7 signal; some inactives read as strong as hits; reference of the scale not given here;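 same signal on another scale; lower means less binding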
* hit, by the source's call; & = joins results of further samples. These rows are one share of the data; count on the stated rates, not on these rows.

SMILES | CBX7 inh | CBX7 inh z-score
COc1ccc(-c2noc(/C=C/c3ccccc3Cl)n2)cc1OC | 0.92 | -0.98
N#Cc1nc(COc2ccccc2)oc1NCCN1CCOCC1 | 1 | 2.2
Cc1sc2ncnc(Oc3cccc(C(F)(F)F)c3)c2c1C | 1.2 | 0.31
CNc1ncc(-c2nc3cc(Cl)ccc3o2)cn1 | 1.2 | 1.1
CC(=O)N1CCc2cc(S(=O)(=O)NCCCN3CCN(Cc4ccccc4)CC3)ccc21 | 1.2 | 1.3
CCOC(=O)CNC(=O)c1cnc(Nc2ccccc2OC)c2ccccc12 | 1.1 | 2.5
COc1cc2c(cc1OC)C1C(C(=O)Nc3cccc(Cl)c3)c3ccccc3C(=O)N1CC2 (stereo not drawn) | 0.85 | -0.52
CN(C(=O)Cc1c(C(=O)O)[nH]c2ccc(Cl)cc12)c1ccc(Cl)cc1 | 0.99 | -0.19
COc1ccccc1CNC(=O)CS(=O)(=O)Cc1nc(-c2cccc(Cl)c2)oc1C | 0.99 | -0.53
Cc1cc(Nc2ccc(C)c(C)c2)n2nc(C)nc2n1 | 1.1 | 0.87
O=C(Nc1nnc(COc2ccccc2Cl)s1)c1ccc(F)cc1 | 1.1 | 0.24
COc1ccccc1CNC(=O)CN1CCCN(Cc2ccc(F)cc2Cl)C1=O | 0.95 | -0.89
O=S(=O)(c1ccc(Br)cc1)n1c(/C=C/c2ccc(F)cc2)nc2ccccc21 | 1 | 2.2
Cc1ccc(-c2cc(C(=O)NCc3cnn(C)c3)c3ccccc3n2)cc1C | 0.96 | -1
COc1ccc(C)cc1NC(=O)C(=O)NCc1cccnc1 | 0.94 | -0.8
Cc1cc(C)c2oc(-c3ccc(C)c(NC(=O)c4ccc(Cl)cc4Cl)c3)nc2c1 | 0.93 | -0.95
O=C(Nc1c2c(nn1-c1ccc(Cl)cc1)CS(=O)(=O)C2)c1ccc(F)cc1 | 0.86 | -0.91
COc1ccc(-c2c(C)nn3c(N4CCN(c5ccccn5)CC4)cc(C)nc23)cc1OC | 0.91 | -2.5
CCCN(CCC)S(=O)(=O)c1ccc(NC(=O)c2c(-c3ccccc3Cl)noc2C)cc1 | 1 | 0.31
CCOc1ccc(NC2CC(=O)N(c3ccccc3F)C2=O)cc1 (stereo not drawn) | 0.99 | -0.38
CCOC(=O)c1c(C)n(C)c2ccc(OCC(O)CN3CCCCC3)cc12 (stereo not drawn) | 0.99 | -0.42
CCOC(=O)c1cnc2cc(C(F)(F)F)ccc2c1NCCCN1CCC(C)CC1 | 1.2 | 4.1
NC(=O)CSc1oc(-c2cccs2)nc1S(=O)(=O)c1ccc(Cl)cc1 | 0.93 | -0.12
CC1CCN(c2nc(-c3ccc(F)cc3)cc(C(F)(F)F)n2)CC1 | 1.9 | 35
CCOC(CNC(=O)c1cc2c(-c3ccccc3F)nn(C)c2s1)OCC | 1.1 | 1.2

Molecules listed so far that contain a thiophene ring, fused or not:
SMILES | CBX7 inh | CBX7 inh z-score
Cc1sc2ncnc(Oc3cccc(C(F)(F)F)c3)c2c1C | 1.2 | 0.31
NC(=O)CSc1oc(-c2cccs2)nc1S(=O)(=O)c1ccc(Cl)cc1 | 0.93 | -0.12
CCOC(CNC(=O)c1cc2c(-c3ccccc3F)nn(C)c2s1)OCC | 1.1 | 1.2

More results follow:
SMILES | CBX7 inh | CBX7 inh z-score
CCCc1sc(N2CCC(C(N)=O)CC2)nc1-c1ccccc1 | 0.9&0.91 | -2.4&-2.3
CN(C)c1ccc(C2Nc3ccc(C(=O)c4ccccc4)cc3NC3=C2C(=O)CCC3)cc1 (stereo not drawn) | 0.72 | -1.1
CCN(CC)CCCNC(=O)CCn1nc(-c2ccccc2)ccc1=O | 1.1 | 2.1
Cc1ccccc1-c1nc(CS(=O)(=O)CC(=O)NC2CCCC(C)C2C)c(C)o1 (stereo not drawn) | 1.2 | 3.3
COc1ccc(NC(=O)c2cc3c(n(-c4ccccc4)c2=O)CCCC3=O)cc1 | 1 | -0.063
CCOc1ccc(NC(=O)CSc2nccn2-c2ccc(OCC)cc2)cc1 | 1 | 0.016
CC1CCN(S(=O)(=O)c2ccc3c(c2)N(CC(=O)NCc2ccc(F)cc2Cl)C(=O)CS3)CC1 | 0.79 | -3.9
O=C1NC(c2ccccc2O)Nc2sc3c(c21)CCCC3 (stereo not drawn) | 0.88 | -2
Cc1cccc(N(C)C(=O)Cc2c(C(=O)O)[nH]c3ccc(Cl)cc23)c1 | 1.2 | 2
Cc1ccc(-n2nnnc2SCC(=O)c2ccc(O)cc2)cc1 | 0.95 | -1.5
COc1ccc(CN2CC(C(=O)NCCc3ccccc3)CC2=O)cc1 (stereo not drawn) | 1 | 1.3
CCOC(=O)N1CCN(c2c(N3CCc4ccccc43)c(=O)c2=O)CC1 | 1 | -0.011
CCOc1ccc(Nc2nc(-c3c(C)nc4sccn34)cs2)cc1 | 0.67 | -8.3
CCOC(=O)Cc1csc(NC(=O)c2ccccc2Oc2ccccc2)n1 | 1 | 0.34
CC1CCN(CCCNC(=O)C2c3ccccc3C(=O)N3CCc4ccccc4C23)CC1 (stereo not drawn) | 0.86 | -2.3
Nc1c2c(nc3ccccc13)CCC2 | 0.88 | -1.9
CC(=O)N1CCc2cc(S(=O)(=O)NCCc3ccc(Cl)cc3)ccc21 | 1 | -0.13
O=C(Nc1ccccc1C(=O)N1CCCCCC1)c1cccc(S(=O)(=O)N2CCCCCC2)c1 | 1 | 0.076
Cc1ccc2c(c1)C(c1ccccc1)N(C(=O)C1CC1)CC(=O)N2 (stereo not drawn) | 1 | 0.011
CCN(C(=O)c1cc2c(n(-c3ccccc3)c1=O)CC(C)(C)CC2=O)c1ccccc1 | 1 | 0.35
CCOc1cc2c(cc1OCC)C1C(C(=O)Nc3ccccc3C)c3ccccc3C(=O)N1CC2 (stereo not drawn) | 1.1 | 0.45
CCC1Oc2ccccc2N(CC(=O)NCCc2ccccc2)C1=O (stereo not drawn) | 0.9 | -1.1
O=C(CSc1nnc(Cc2cc(=O)[nH]c(=O)[nH]2)n1-c1ccc(Cl)cc1)N1CCCCCC1 | 1 | 0.92
CC1CCCC(NC(=O)CN(C)S(=O)(=O)c2cnc[nH]2)C1C (stereo not drawn) | 1.1 | 1.3
CCN1CCN(CCCNC(=O)C2CCN(c3nn4c(=O)cc(C)nc4s3)CC2)CC1 | 1.3 | 2.4

Entries of single compounds from above:
Shown for CCOC(=O)N1CCN(c2c(N3CCc4ccccc43)c(=O)c2=O)CC1 → CBX7 inh: 1; CBX7 inh z-score: -0.011
Shown for CCN1CCN(CCCNC(=O)C2CCN(c3nn4c(=O)cc(C)nc4s3)CC2)CC1 → CBX7 inh: 1.3; CBX7 inh z-score: 2.4

(list continues)
SMILES | CBX7 inh | CBX7 inh z-score
Oc1ccc(C2(c3ccccc3Cl)CCCCC2)cc1 | 1 | 0.028
O=C1CC(Nc2ccc(N3CCOCC3)cc2)C(=O)N1Cc1ccccc1 (stereo not drawn) | 0.97 | -0.79
CN1CCN(c2nc(-c3ccccc3)c3cc(Cl)ccc3n2)CC1 | 1.2 | 0.73
COc1ccc(OC)c(NC(=O)C2(C)CC3c4ccccc4C2c2ccccc23)c1 (stereo not drawn) | 1 | 0.5
CC(NC(=O)c1cnc(N2CCN(c3ncccn3)CC2)c2ccccc12)c1ccccc1 (stereo not drawn) | 0.96 | -0.22
COc1cccc(NC2c3ccccc3C(=O)N2c2cccnc2)c1 (stereo not drawn) | 1 | -0.047
Cc1cccc(N2CCN(CCNC(=O)c3ccc4nc(N5CCOCC5)sc4c3)CC2)c1C | 1.3 | 2.5
CNS(=O)(=O)c1cc(-c2nnc(Nc3ccc(C)cc3C)c3ccccc23)ccc1C | 0.67 | -6.3
CC1(C)CC(=O)c2cc(C(=O)Nc3ccc4c(c3)C(=O)NC4=O)c(=O)n(-c3ccc(Cl)cc3)c2C1 | 1 | 1.3
Cc1ccc(-c2cc(C(F)(F)F)n3nc(C)c(-c4ccccc4)c3n2)cc1 | 0.85 | -1.9
Cc1nc2c(C(=O)N3CCCC3)cnn2c(C)c1Cc1ccccc1Cl | 1 | 0.69
CC(NC(=O)C(=O)N1CCOCC1)C(c1cccs1)N1CCN(c2ccccc2)CC1 (stereo not drawn) | 0.93 | -0.75
COc1ccc(OC)c(-c2cc(C(=O)N3CCN(c4ncccn4)CC3)c3ccccc3n2)c1 | 0.95 | -0.064
CCCCCn1c(=O)[nH]c2cc(C(=O)NCc3cccc(Cl)c3)ccc2c1=O | 1.1 | 2.7
O=C(NCCC1=CCCCC1)C1CCN(S(=O)(=O)c2cccnc2)CC1 | 1 | 1.7
CCc1ccc2c(c1)c(=O)c(S(=O)(=O)c1ccc(C)c(C)c1)cn2CC(=O)Nc1ccccc1 | 0.93 | -2.5
O=C(Nc1cccc(C(F)(F)F)c1)c1cc2cc(Br)ccc2oc1=O | 1.1 | 2
COc1ccc(-c2[nH]c(-c3ccc(C)cc3)nc2SCC(=O)Nc2ccc3c(c2)OCCO3)cc1 | 0.87 | -6.4
Cc1ccc(CCNC(=O)c2nc(-c3ccccc3Cl)oc2C)cc1 | 0.91 | -0.58
Cc1ccc2cc(CCNC(=O)c3ccc(C(C)(C)C)cc3)c(=O)[nH]c2c1 | 1.1 | 2.6
Cc1ccc(Cl)cc1N1CCN(CCNC(=O)CN2C(=O)CSc3ncccc32)CC1 | 1 | 0.053
Cc1cc(=O)n2nc(N3CCC(C(=O)NCc4ccccc4)CC3)sc2n1 | 1 | 1
COc1ccc(-c2nnn(Cc3cccc(F)c3)n2)cc1OC | 1 | 0.27
COc1ccc(OC2C(=O)N(c3cccc(C(F)(F)F)c3)C2c2ccc3c(c2)OCO3)cc1 (stereo not drawn) | 0.98 | -0.069
COc1ccccc1CNC(=O)C1CC(=O)N(CCc2ccc(C)cc2)C1 (stereo not drawn) | 0.97 | -1.5
SMILES | CBX7 inh | CBX7 inh z-score
Cc1ccc(Cl)cc1NC(=O)Cn1cc2c(n1)CCCC2 | 0.99 | -0.3
COc1cc2c(cc1OC)C(C(=O)N1CCCCCC1)C1c3ccccc3CCN1C2=O (stereo not drawn) | 1.1 | 2.6
COc1cccc(-n2ccnc2SCC(=O)Nc2ccc3c(c2)OCCO3)c1 | 0.72 | -0.38
O=C(c1ccccc1-c1nc2ccccc2[nH]1)N1CCCCC1 | 0.93 | -0.72
O=C(Nc1ccc2nc3n(c(=O)c2c1)CCCCC3)c1cccc(Cl)c1 | 0.97 | -0.77
Cn1c2ccccc2c2c(C(=O)NCc3ccc(F)cc3)cn(C3CCCC3)c(=O)c21 | 1.1 | 0.099
O=C1CCCc2c1cc(C(=O)Nc1cccc(Cl)c1)c(=O)n2-c1ccccc1 | 1.1 | 1.3
CC1CCN(C(C(=O)Nc2ccc(C(C)C)cc2)c2ccc3c(c2)OCO3)CC1 (stereo not drawn) | 0.95 | -0.3
O=C(Nc1ccc(O)cc1)c1c(O)c2ccccc2[nH]c1=O | 0.88 | -2.2
CCCCOc1ccc(C(C)NC(=O)CN2C(=O)C(CC)Oc3ccccc32)cc1 (stereo not drawn) | 0.97 | -1.3
O=C(CSc1nc(-c2cccc(F)c2)[nH]c1-c1ccccc1)Nc1ccc2c(c1)OCCO2 | 0.88 | -3.2
Cc1ccc(NC(=O)c2nc3c(nnn3Cc3ccc4c(c3)OCO4)c(=O)[nH]2)cc1 | 0.96 | -0.93
COc1cc(C)c(C)cc1S(=O)(=O)NCCc1c(C)[nH]c2c(C)cccc12 | 0.86 | -3.1
CC(NC(=O)c1cc2c(s1)CS(=O)(=O)C2)c1ccccc1 (stereo not drawn) | 0.96 | -1.2
Cc1ccc(C)c(N2CCN(C(=O)c3cnn4c(C)c(Cc5ccccc5Cl)c(C)nc34)CC2)c1 | 0.75 | -6.9
CC1(C)CC(=O)N(CC(=O)N2CCCCC2)c2ccccc2S1(=O)=O | 1 | 0.35
Cc1cc(NC(=O)CN2CCN(c3ccccc3)CC2)no1 | 1 | 0.76
CC(=O)N1CCc2cc(S(=O)(=O)NCCN3CCC(C)CC3)ccc21 | 1.5 | 1.9
O=C(NC1CCCC1)c1ccc2c(c1)N(Cc1ccc(Cl)cc1)C(=O)c1ccccc1S2(=O)=O | 1.2 | 1.7
CCOC(=O)C1CCN(c2c(Nc3ccc(F)cc3)c(=O)c2=O)CC1 | 1 | 1.4
O=C(CCCn1c(=O)c2sccc2n(Cc2cccc(F)c2)c1=O)NCc1ccc2c(c1)OCO2 | 1 | 0.59
Cc1ccc(NC(=O)CN(C)S(=O)(=O)c2cnc[nH]2)cc1 | 1 | -0.0034
O=C(CN1C(=O)COc2cc(S(=O)(=O)N3CCCC3)ccc21)NCCc1ccc(Cl)cc1 | 1.1 | 2.9
CC(=O)NCCc1nc2ccccc2n1Cc1ccccc1F | 0.94 | -0.91
O=C(CSc1nnc(Cc2cc(=O)[nH]c(=O)[nH]2)n1-c1ccc(F)cc1)N1CCCc2ccccc21 | 1.1 | 0.2
O=C(NCc1cccnc1)c1csc2c1CCCCC2 | 0.97 | -0.94
Cc1[nH]c2ccccc2c1C1(O)C(=O)N(CCc2ccccc2)c2ccccc21 (stereo not drawn) | 0.92 | -1.3

Reprinted at random: 7 compounds from above
SMILES | CBX7 inh | CBX7 inh z-score
COc1cccc(-n2ccnc2SCC(=O)Nc2ccc3c(c2)OCCO3)c1 | 0.72 | -0.38
O=C(NCc1cccnc1)c1csc2c1CCCCC2 | 0.97 | -0.94
O=C(Nc1ccc(O)cc1)c1c(O)c2ccccc2[nH]c1=O | 0.88 | -2.2
O=C(CSc1nc(-c2cccc(F)c2)[nH]c1-c1ccccc1)Nc1ccc2c(c1)OCCO2 | 0.88 | -3.2
O=C(c1ccccc1-c1nc2ccccc2[nH]1)N1CCCCC1 | 0.93 | -0.72
Cn1c2ccccc2c2c(C(=O)NCc3ccc(F)cc3)cn(C3CCCC3)c(=O)c21 | 1.1 | 0.099
COc1cc2c(cc1OC)C(C(=O)N1CCCCCC1)C1c3ccccc3CCN1C2=O (stereo not drawn) | 1.1 | 2.6

Source: PubChem (several laboratories)
